D2 ag – activates the human D2 dopamine receptor. P14416. DiscoveRx PathHunter D2 beta-arrestin, luminescence, 90 min; 100% = 57 uM dopamine signal. activation, % (concentration not given with the values). 0.084% of 360,000 active. AID 624465; in the data active = activation above about 40%; inconclusive = about 15% to 40%; inactive = below about 15%; also: compound concentration not given in the record; the text of the record calls up to 30% inactive
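DiscoveRx PathHunter D2 beta-arrestin cells (2,100/well) attached overnight, then compound-stimulated 90 min at 37 C in HBSS/10 mM HEPES/0.1% Tween-20 buffer; beta-galactosidase complementation read by luminescence after 1 h at ambient temperature. Dopamine 57 uM final (EC100) as control.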
TRPML1 ag – agonists of human TRPML1 channel; 0.12% of 410,000 active; TRPML1-expressing cells, Ca2+ dye fluorescence, FDSS; host cell line not named in the record; reference of the full effect not given here; activation, % (concentration not given with the values); in the data active = activation above about 50%; inconclusive = about 30% to 50%; inactive = below about 30%; also: 0% is about no effect; the text of the record puts the active cut at 80%
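Tet-induced TRPML1-DL cells, 1,500 per well, cultured overnight, were loaded with a no-wash Ca2+ dye for 45–90 min. Calcium fluorescence was recorded on the FDSS for 110 s after compound addition, before the EC80 agonist (4 uM 54-4) was added.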
Six1-Eya2 blk – blocks human Six1 binding to Eya2 | Q15475+O00167 | AlphaScreen GST-Six1/His-Eya2 binding, biochemical; hits give low values; control for the full effect not named in the record | activity change, % (no concentration beside the values) | 0.56% of 360,000 active | AID 651725; in the data active = activity change below about -65%; inconclusive = about -30% to -65%; inactive = above about -30%; also: % is scaled to controls: 0 for no effect and ±100 for the full control effect; compound concentration not given in the record
Target sequence (O00167 whole entry, looked up): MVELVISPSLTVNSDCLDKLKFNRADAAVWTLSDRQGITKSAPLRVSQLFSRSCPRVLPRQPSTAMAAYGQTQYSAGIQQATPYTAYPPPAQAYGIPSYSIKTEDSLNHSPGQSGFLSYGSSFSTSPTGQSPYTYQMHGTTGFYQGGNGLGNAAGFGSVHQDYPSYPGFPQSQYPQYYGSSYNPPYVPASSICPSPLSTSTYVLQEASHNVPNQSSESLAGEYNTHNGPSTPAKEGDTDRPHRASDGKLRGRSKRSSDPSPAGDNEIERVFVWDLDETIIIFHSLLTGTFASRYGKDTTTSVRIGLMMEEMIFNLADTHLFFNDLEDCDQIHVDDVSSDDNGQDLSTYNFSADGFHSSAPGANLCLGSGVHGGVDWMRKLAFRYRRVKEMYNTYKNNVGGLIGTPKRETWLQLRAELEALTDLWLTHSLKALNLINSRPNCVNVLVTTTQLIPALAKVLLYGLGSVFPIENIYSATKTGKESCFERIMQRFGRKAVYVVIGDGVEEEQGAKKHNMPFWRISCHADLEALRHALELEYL
Target sequence (Q15475 whole entry, looked up): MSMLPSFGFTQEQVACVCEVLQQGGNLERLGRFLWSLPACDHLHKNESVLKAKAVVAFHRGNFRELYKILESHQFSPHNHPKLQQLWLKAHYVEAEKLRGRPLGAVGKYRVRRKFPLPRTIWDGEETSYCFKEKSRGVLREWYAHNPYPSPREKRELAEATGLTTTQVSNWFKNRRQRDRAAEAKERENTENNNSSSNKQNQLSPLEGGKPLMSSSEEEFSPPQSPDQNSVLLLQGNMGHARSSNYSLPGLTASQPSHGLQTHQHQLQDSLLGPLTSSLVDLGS
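GST-Six1 + His-Eya2 (5X stock: 250/500 nM); Tris pH 8.0, 300 mM NaCl, 0.05% BSA, 0.02% Tween 20; GSH donor/Ni acceptor beads; 1 h 37 °C dark; AlphaScreen readout.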
PINK1 expr mod – PINK1 expression modulation | PINK1 immunofluorescence, high-content cytometry, 24 h | Potency, µM (titrated, usually from 76.6 µM), for the others: top-dose activation (PINK1 increase), actives largely listed as activators | 0.2% of 410,000 active | AID 624263; active = well fitted activation curve with a large enough effect; inconclusive = small, poorly fitted or top-dose-only effect; inactive = flat fitted curve, though single readings scatter; cell line not stated here;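 also: potency is read from the fitted curve at half-maximal effect; % of control where 0% means no effect; nearly all actives have a fitted effect of over 65% in size; a mitochondrial uncoupler was the plate control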
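A stable cell line was treated with compounds at 5 concentrations for 24 hours, with CCCP as control. PINK1 levels and mitochondrial localization were measured by immunofluorescence with mitochondrial, cell and nuclear markers after fixation, read by laser-scanning cytometry.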
D2 potentiator – human D2 receptor positive allosteric modulation; P14416; DiscoveRx D2 beta-arrestin cells, luminescence, 90 min; 100% = 57 uM dopamine signal; potentiation, % (test concentration not listed); 0.23% of 360,000 active; active = potentiation of 50% or more; inconclusive = 30% to 50%; inactive = 30% or less;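 also: compound concentration not given in the record; tested on top of an EC20 dose of dopamine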
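D2 cells co-treated with compound plus 50 nM dopamine (EC20) for 90 min at 37 deg C to detect potentiation. Beta-arrestin recruitment was read as enzyme-fragment luminescence after 1 h at ambient temperature. Full response was set by 57 uM dopamine.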
TRPML1 blocker – blocks the human TRPML1 channel; Q9GZU1; TRPML1-inducible cells, Ca2+ dye fluorescence, FDSS; hits give low values; inhibition of EC80 agonist-evoked calcium signal; activity change, negative = inhibition, % (concentration not given with the values); 0.02% of 390,000 active; AID 624415; in the data active means activity change below about -50%; inconclusive means about -30% to -50%; inactive means above about -30%;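 also: stimulus is agonist 54-4 at its EC80 concentration; % is scaled to controls: 0 for no effect and ±100 for the full control effect; compound concentration not given in the record; the text of the record puts the active cut at -80%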
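TRPML1-DL cells, Tet-induced overnight (~16 h, 37 °C) at 1,500 cells/well, were loaded with Ca8 no-wash dye plus quencher for 45-90 min at room temperature. Compounds were pinned during FDSS kinetic reading; agonist 54-4 at EC80 (4 uM final) then added.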
Numbers without * were called inactive; ? = inconclusive; . = no result given; & = joins results of further samples; [ ] = dose if it differs, or a comment.

Order of values – PINK1 expr mod, TRPML1 blocker, D2 ag, D2 potentiator, TRPML1 ag, Six1-Eya2 blk
- CC(=O)Oc1cc2c3c(c1)/C(=C1/SC(=S)NC1=O)C(=O)N3C(C)(C)C=C2C
    6.3%, -8, -3.6, -19, -0.9, -19
- CN(C)S(=O)(=O)N1CCN(c2ccc([N+](=O)[O-])c(N3CCCCC3)c2)CC1
    0.1%, -7, -1.2, 3, -0.7, -10
- Cc1c(N)cc[n+](CC(=O)c2ccccc2)c1C
    ?, -6, -7.3, -1, 3.2, 1
- Cc1ccc2oc(=O)c3cnn(CC(=O)N(CCCN4CCOCC4)Cc4ccco4)c3c2c1
    7.3%, 20, -5.1, -8, 0.2, 5
- Cc1nc2scc(C)n2c(=O)c1S(=O)(=O)N1CCN(c2ccccn2)CC1
    3.2%, -2, -1.6, -6, -0.7, -1
- Cc1ccc(/C=N/NS(=O)(=O)c2ccccc2)o1
    1.9%, -7, -5.0, -11, -0.3, -11
- Cc1cc(NCc2ccccn2)n2ncc(-c3ccc(Cl)cc3)c2n1
    5.0%, 37, 4.9, -6, 0.5, 21
- O=C(NNC(=O)c1cccnc1Cl)c1ccc(F)cc1
    2.4%, -2, -4.3, 11, -0.4, 19
- c1cc(C(c2nnnn2C2CCCCC2)N2CCN3CCCC3C2)ccn1 (stereo unspecified)
    1.4%[38.3 µM], 8, 0.2, 11, 0.6, 1
- Cc1ccc(SCCNS(=O)(=O)c2ccc(F)cc2)cc1
    1.9%, -17, -6.1, 2, 0.3, 0
- CCC(=O)Nc1sc(C(=O)Nc2ccccc2F)c(C)c1C(=O)OC
    4.1%, 6, -0.8, 0, 5.4, -5
- CCC1CN(S(=O)(=O)c2cc(-c3cc(C)no3)ccc2C)c2cc(Cl)ccc2O1 (stereo unspecified)
    -0.3%, -9, ., ., -0.1, .
- CCOc1ccc(NC(=O)CN(C)C(=O)CC2CCCC2)cc1OCC
    -0.4%, -9, -4.4, -4, 0.0, -17
- CCCNC(=O)N(C)C[C@@H]1Oc2ncc(Br)cc2C(=O)N([C@H](C)CO)C[C@@H]1C
    1.6%, -14, -8.8, -4, -0.1, -12
- CC(C)(C)C(=O)NC(=S)Nc1ccccc1F
    0.9%, -2, -0.9, -19, -0.7, -2
- Nc1nc(SCC(=O)Nc2ccc([N+](=O)[O-])cc2Br)n[nH]1
    2.5%, 2, -2.0, -12, 0.1, 2
- CC1=C(c2ccc(C)c(C)c2)S(=O)(=O)N=C1N1CCC(C(=O)NCCc2ccco2)CC1
    -0.9%, -4, ., ., 1.6, .
- Nc1ccccc1C#Cc1cnccn1
    0.0%, 11, 0.5, 3, -0.6, 3
- COc1cccc(NC(=S)N(CCc2nc3cc(C)c(C)cc3[nH]2)Cc2cccnc2)c1
    ., 3, -4.4, -35, -0.4, -2
- COc1cccc(C(=O)NC2CCCC2)c1
    0.4%, -1, 5.6, -9, 2.4, 36
- O=C(CSc1nnc(Cn2nnc(-c3ccccc3)n2)n1-c1ccccc1)Nc1ccccc1
    21%, -1, -1.1, -12, 1.8, -5
- CC1(C(=O)NS(=O)(=O)Cc2ccccc2C(F)(F)F)CCN1C(=O)Cc1ccccc1 (stereo unspecified)
    0.4%, -14, -5.8, -13, -0.5, 7
- COc1ccccc1-c1sc2ccccc2c1C#Cc1ccc(N(C)C)cc1
    1.3%, -2, 1.0, -4, 0.3, 29
- COc1ccc(CNc2ncnc3c2cnn3-c2ccc(C)c(C)c2)cc1
    1.0%, -19, ., ., 1.3, .
- COc1cc(C(=O)OCCCN2CCOCC2)cc(OC)c1OC
    1.1%, 8, 0.2, -2, -0.2, 8
- CCCOc1ccc(C(=O)C(CN2CCOCC2)c2ccccc2)cc1 (stereo unspecified)
    -1.5%, -13, -1.5, -14, 1.0, -3
- O=C(NCCC1=CCCCC1)c1ccc(-n2cncn2)cc1
    1.0%, -19, 0.3, -1, 1.1, 1
- O=C(Nc1ccc(NC(=O)c2cccs2)cc1)c1ccc2c(c1)OCCO2
    7.9%, 43, -2.9, -9, -0.6, 5
- O=C(CSc1ccc(Cl)cc1)NNC(=O)c1cccnc1
    1.3%, -25, -2.1, -7, -0.1, 13
- COc1ccc(C(=S)N(C)C)cc1OC
    2.6%, 65, -0.5, 10, 0.6, 9
- CCCOc1ccc(-c2csc3ncn(Cc4ccc(C(=O)O)cc4)c(=O)c23)cc1
    2.4%, -17, -2.7, 2, 4.9, -4
- COc1ccccc1CNC(=O)C1CCN(S(=O)(=O)c2ccc3c(c2)C(C)(C)C(=O)N3C)CC1
    1.7%, -7, -1.9, -4, -1.0, -3
- COc1ccc(N(C(=O)CNS(=O)(=O)c2ccccc2)C(C(=O)NCc2ccco2)C(C)C)cc1 (stereo unspecified)
    2.2%, -4, 0.1, 1, 0.0, 0
- CS(=O)(=O)Nc1ccc(-c2ccc3nccn3c2)cc1
    0.5%, ., 5.9, 10, -0.4, -14
- COc1ccc(C(=O)N2CCC(C(=O)O)CC2)c2ccccc12
    0.7%, -1, -1.0, 5, 0.1, 6
- Cc1cc(C(=O)Cn2nc(C(=O)O)c3ccccc3c2=O)c(C)n1-c1ccc(OC(F)F)cc1
    4.2%, 32, -4.5, 0, 4.2, -3
- CN1CCN(CCCN(Cc2cccs2)C(=S)Nc2ccc(Cl)cc2)CC1
    3.3%, -20, 0.2, -14, 2.7, -12
- COc1ccc2c(c1)nc(SCC(=O)c1ccc(Br)s1)n2C
    ., 10, 1.4, -13, -0.1, -2
- CCCCCCCCNC(=O)c1cnccn1
    8.2%, 1, -2.6, -8, -0.8, 8
- O=C(c1cnccn1)N1CCN(S(=O)(=O)c2ccc3ccccc3c2)CC1
    -1.3%, 0, -1.5, -6, 2.9, 0
- CC(C)c1ccc(NC2CCCN(C(=O)c3cccs3)C2)cc1 (stereo unspecified)
    1.2%, 14, -0.8, -11, 1.2, -23
- O=C(Nc1nc(-c2ccc(Cl)cc2)cs1)NC1CCCCC1
    ?, 19, 4.6, 30, 2.3, -5
- CCOc1ccc(N(CC(=O)NCCSCc2ccccc2)S(C)(=O)=O)cc1
    -0.6%, 22, -3.0, -27, -0.2, 2
- CCNC(=O)C12CCC(C)(C(=O)O1)C2(C)C (stereo unspecified)
    -0.2%, -3, -3.3, -2, 0.7, 4
- CS(=O)(=O)N1Cc2ccccc2CC1C(=O)OCC(=O)NCCc1ccc(S(N)(=O)=O)cc1 (stereo unspecified)
    -0.6%, 6, 3.2, -19, -0.5, -10
- CCn1c(COc2cccc3ccccc23)nnc1SCC(=O)OC1CCCCC1
    1.8%[38.3 µM], 10, -1.9, 10, 1.3, -3
- CNS(=O)(=O)c1cn(CC(=O)Nc2ccc(OC)cc2OC)cc1S(=O)(=O)NC
    -0.6%, -2, ., ., 0.1, .
- CCCCc1ccc(NC(=O)N[C@@H](CC(C)C)C(=O)O)cc1
    3.1%, ., -4.6, -7, ., 8
- Cc1ccc(N=Cc2sc(O)c3ccccc23)cc1
    1.3%, 16, 12, -1, 21, 8
- COC(=O)c1cc2occc2n1Cc1nc(-c2ccc(Cl)cc2)oc1C
    4.0%&4.6%, 15&5, -4.2, -1, -0.4&-0.2, -9

Grouped by structure, the compounds so far with fluorine
Order of values – PINK1 expr mod, TRPML1 blocker, D2 ag, D2 potentiator, TRPML1 ag, Six1-Eya2 blk
- O=C(NNC(=O)c1cccnc1Cl)c1ccc(F)cc1
    2.4%, -2, -4.3, 11, -0.4, 19
- Cc1ccc(SCCNS(=O)(=O)c2ccc(F)cc2)cc1
    1.9%, -17, -6.1, 2, 0.3, 0
- CCC(=O)Nc1sc(C(=O)Nc2ccccc2F)c(C)c1C(=O)OC
    4.1%, 6, -0.8, 0, 5.4, -5
- CC(C)(C)C(=O)NC(=S)Nc1ccccc1F
    0.9%, -2, -0.9, -19, -0.7, -2
- CC1(C(=O)NS(=O)(=O)Cc2ccccc2C(F)(F)F)CCN1C(=O)Cc1ccccc1 (stereo unspecified)
    0.4%, -14, -5.8, -13, -0.5, 7
- Cc1cc(C(=O)Cn2nc(C(=O)O)c3ccccc3c2=O)c(C)n1-c1ccc(OC(F)F)cc1
    4.2%, 32, -4.5, 0, 4.2, -3

(list continues)
Order of values – PINK1 expr mod, TRPML1 blocker, D2 ag, D2 potentiator, TRPML1 ag, Six1-Eya2 blk
- CC(C)NC(=O)c1cccc2c1-c1ccccc1C2=O
    -1.2%, -14, -3.3, -4, 0.1, -4
- COc1ccc(CCNC(=O)CSc2nc3sc(C(=O)O)c(C)c3c(=O)[nH]2)cc1OC
    0.6%, -1, -1.6, -4, 0.7, 0
- CC(C)(C)NC(=O)C1CN(S(=O)(=O)c2ccccc2)CCN1S(=O)(=O)c1ccccc1 (stereo unspecified)
    -1.7%, 0, -2.8, 2, -0.9, 1
- Cc1ccc(CNC(=O)C2(S(=O)(=O)c3ccccc3)CC=CC2)cc1
    3.0%, 10, -1.5, -7, 0.4, -2
- Cc1nnc2ccc(N3CCN(c4ccccn4)CC3)nn12
    1.6%, 1, -1.4, -5, 0.6, ?
- COCCn1c(SCC(=O)NCC2CCCO2)nc2c(c1=O)SCC2 (stereo unspecified)
    2.1%, -16, 0.5, -21, -0.2, 2
- CC1(O)c2ccccc2C(=O)N1CCc1ccccc1F (stereo unspecified)
    2.5%, -13, -2.7, -3, -1.7, 6
- O=C1/C(=C/c2ccncc2)SC(=S)N1Nc1ccccc1
    8.0%, 45, -3.7, -9, 1.1, -3
- Cc1ccc(-n2c(SCC(=O)N3CCc4ccccc43)nc3c([nH]c4ccccc43)c2=O)cc1
    -4.1%, -7, ., ., 0.2, .
- CC(C)C(=O)NC(c1ccc(Cl)cc1Cl)c1ccc2cccnc2c1O (stereo unspecified)
    5.5%, ., 3.1, 16, ., -14
- Nc1nonc1-n1nnc(C(=O)N/N=C/c2ccoc2)c1CSc1ccc(Cl)cc1
    2.0%, -4, -1.4, -20, -0.1, -17
- CCOc1ccc2nc3c(cc2c1)CN(CCOC)C(=NC)S3
    3.6%, -2, 0.2, -6, 1.4, 2
- COc1ccc2nc(NC(=O)CCN3C(=S)NC(C)(C)CC3C)sc2c1 (stereo unspecified)
    4.0%, 1, -1.6, -9, -0.8, 0
- Cc1cccc(C)c1NC(=O)CSc1nnc(CCCCCNC(=O)OC(C)(C)C)o1
    -2.5%, -1, 1.4, -3, 1.6, 2
- Cc1cccc(N/C=C/C(=O)c2ccc(Cl)cc2)c1
    2.9%, 37, -2.9, -5, 3.9, 10
- CSCCC(NS(=O)(=O)c1ccc(F)cc1)C(=O)NCc1ccc(S(N)(=O)=O)cc1 (stereo unspecified)
    2.5%, -7, -2.5, -7, 0.7, -1
- O=C(OCCN=C1NS(=O)(=O)c2ccccc21)C1CC(=O)N(c2ccc(Cl)cc2)C1 (stereo unspecified)
    1.8%, -9, -0.8, -7, -0.3, -3
- Cc1ccc(-c2cnn(-c3cccc([N+](=O)[O-])c3)c2N)cc1
    11%, 20, -2.1, -10, 0.8, -18

The order is random, and some 1% of all compounds hit somewhere here.
